# RE007 growth inh = less growth of the S. pombe RE007 Vpr strain; 360,000 tested, 0.21% active; AID 651644; S. pombe RE007 Vpr strain, BacTiter-Glo ATP luminescence, 24 h; control for the full effect not named in the record; Potency, µM (top dose mostly 92.2 µM), for inactives: at the top dose activity change, negative = less growth; active = well fitted falling curve with a large enough effect; inconclusive = small, poorly fitted or top-dose-only effect; inactive = no such curve, though single readings can be large or run the other way;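 note: nearly all actives have a fitted effect of over 50% in size; the assay follows cell death caused by Vpr and the record does not say whether a fall means rescue or toxicity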
#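 Fission yeast RE007 carrying one integrated HIV-1 vpr copy, seeded at OD 0.01 in PMG+AL medium with 23 nL pinned compound. Grown 24 h at 30 degrees; viability read by BacTiter-Glo luminescence after 5 min.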
# 2A StopGo = lowers the luciferase signal of an FMDV 2A StopGo reporter | human cells with a luciferase reporter of 2A StopGo recoding; control for the full effect not named in the record | Potency, µM (top dose mostly 57.9 µM), for the others: at the highest dose signal change, negative = less light | 410,000 tested, 1.2% active; active = well fitted falling curve with a large enough effect; inconclusive = small, poorly fitted or top-dose-only effect; inactive = no such curve, though single readings can be large or run the other way; tested in HEK293T cells; note: nearly all actives have a fitted effect of over 45% in size; luciferase light after 4 h
# Numbers without * were called inactive; ? = inconclusive; [ ] = remark or other dose. % is set by controls: 0 for no effect and ±100 for the full control effect; potency is the fitted concentration of half-maximal effect. This is a subset; rates above refer to the full screens.
SMILES,RE007 growth inh,2A StopGo
CCc1nc2ccc(C(=O)Nc3ccc(OC)c(OC)c3)cn2c1N(CC)Cc1ccc(OC)c(OC)c1,?,-21%
Cc1ccc(CN2Cc3ccc(Br)cc3-n3nncc3C2)cc1,-20%,-27%
NC(c1ccccc1)c1csc(Nc2ccc(C(=O)NCCCO)cn2)n1 (stereo not drawn),10%,-13%
c1ccc(-c2nnc(SCc3ccncc3)o2)cc1,-5%,36%[activator]
COC(=O)CCCn1cc(CN(C)C2CN(Cc3cn(CCCC(=O)OC)nn3)S(=O)(=O)C2)nn1 (stereo not drawn),16%,-15%
COC(=O)[C@@]1(Cc2ccc(OC)cc2)[C@H]2c3cc(C(=O)N4CCCC4)n(Cc4ccccc4)c3C[C@H]2CN1C(=O)c1ccccc1,-4%,-28%
C[C@@H]1CN([C@@H](C)CO)C(=O)CCCn2nncc2CO[C@H]1CN(C)C(=O)Nc1ccc(-c2cccs2)cc1,3%,-3%
O=C(CSc1nnc(N2CCCC2)n1-c1cccc(Cl)c1)N1CCN(c2ccccn2)CC1,-8%,-5%
COc1ccc([C@H]2C[C@@H](n3cc(C4CC4)nn3)[C@H](O)CN2CC2CCCCC2)cc1,0%,?
Cc1ccc(Cc2c(-c3ccc(C)cc3)nc3c(Cl)cc(C(F)(F)F)cn23)cc1,-14%,9%
CC(C)N(Cc1nccn1C)C(=O)C1CCC(=O)N(CCc2ccccc2)C1 (stereo not drawn),-7%,-7%
O=C(OCn1nnc2ccccc2c1=O)c1ccc(F)c(S(=O)(=O)N2CCOCC2)c1,4%,?
COc1ccc(NC(=O)N(C)C[C@@H]2OCc3cnnn3CCCC(=O)N([C@H](C)CO)C[C@@H]2C)cc1,11%,?
COc1cc(F)ccc1-c1csc(C(O)c2ccc(F)cc2)n1 (stereo not drawn),-18%,-13%
O=C(O)CN1C(=O)/C(=C\c2ccccc2OCc2ccccc2)SC1=S,-1%,-3%
COc1ccccc1C(=Cc1ccc([N+](=O)[O-])cc1)C(=O)O,-9%,-22%
CN(C)S(=O)(=O)c1ccc(C(=O)Nc2nnc(SCC(=O)N3CCOCC3)s2)cc1,2%,16%
C#CCNC(=O)c1ccc2sc([C@@H]3O[C@H](CO)[C@H](O)[C@H](O)[C@H]3O)nc2c1,9%[18.4 µM],-10%
CC(=O)c1c(C)[nH]c(C(=O)OCC(=O)NC(C)c2ccccc2)c1C (stereo not drawn),4%,0%
CC(C)c1cccc(C(C)C)c1NC(=O)OC1CCCCC1,11%[18.4 µM],-16%
CO[C@@H]1CN(C)C(=O)c2cc(NC(=O)C3CC3)ccc2OC[C@H](C)N(C(=O)CN2CCOCC2)C[C@@H]1C,8%,-22%
CCCCNC(=O)C(NC(=O)c1cccc2ccccc12)C(=O)c1ccccc1 (stereo not drawn),-12%,11%
CSCCC(NC(=O)COc1ccccc1)C(=O)NCC(C)(C)N1CCOCC1 (stereo not drawn),15%,-6%
CCCCC(=O)Nc1ccc(Cl)cc1F,-8%,20%
CCCCN(C)C(=O)c1ccc(Nc2nc(C(N)CCc3ccccc3)cs2)nc1 (stereo not drawn),28%,8%
C=CCC[C@H](CCCCC)OC(=O)/C=C/[C@@H](O)[C@H](O)C[C@H](O)CC=C,4%,-22%
CCC1(CCC(C)C)C(=O)NC(=O)N(c2ccccc2)C1=O (stereo not drawn),-1%,-21%
CCOC(=O)C1(Cc2ccccc2C)CCCN(C(=O)c2ccc(C(C)=O)s2)C1 (stereo not drawn),-5%,-16%
COc1ccc(S(=O)(=O)NNC(=O)Nc2ccc(F)cc2)cc1,8%,-12%
Cc1cccc(NC(=O)CNC(=O)c2cc(S(=O)(=O)N(C)C)ccc2N2CCCC2)c1C,3%,-16%

# Some of the entries so far, as tab-separated lines.
Compound	RE007 growth inh	2A StopGo
CC(=O)c1c(C)[nH]c(C(=O)OCC(=O)NC(C)c2ccccc2)c1C (stereo not drawn)	4%	0%
CC(C)c1cccc(C(C)C)c1NC(=O)OC1CCCCC1	11%[18.4 µM]	-16%
CO[C@@H]1CN(C)C(=O)c2cc(NC(=O)C3CC3)ccc2OC[C@H](C)N(C(=O)CN2CCOCC2)C[C@@H]1C	8%	-22%
CCCCNC(=O)C(NC(=O)c1cccc2ccccc12)C(=O)c1ccccc1 (stereo not drawn)	-12%	11%
CSCCC(NC(=O)COc1ccccc1)C(=O)NCC(C)(C)N1CCOCC1 (stereo not drawn)	15%	-6%
CCCCC(=O)Nc1ccc(Cl)cc1F	-8%	20%
CCCCN(C)C(=O)c1ccc(Nc2nc(C(N)CCc3ccccc3)cs2)nc1 (stereo not drawn)	28%	8%
C=CCC[C@H](CCCCC)OC(=O)/C=C/[C@@H](O)[C@H](O)C[C@H](O)CC=C	4%	-22%
CCC1(CCC(C)C)C(=O)NC(=O)N(c2ccccc2)C1=O (stereo not drawn)	-1%	-21%
CCOC(=O)C1(Cc2ccccc2C)CCCN(C(=O)c2ccc(C(C)=O)s2)C1 (stereo not drawn)	-5%	-16%
COc1ccc(S(=O)(=O)NNC(=O)Nc2ccc(F)cc2)cc1	8%	-12%
Cc1cccc(NC(=O)CNC(=O)c2cc(S(=O)(=O)N(C)C)ccc2N2CCCC2)c1C	3%	-16%

# Following part.
SMILES,RE007 growth inh,2A StopGo
CCOC(=O)C1(C)CCCN(C(=O)c2snnc2C)C1 (stereo not drawn),13%,2%
CCOC(=O)c1sc(N2C(=O)C(O)=C(C(=O)c3ccco3)C2c2ccc([N+](=O)[O-])cc2)nc1C (stereo not drawn),-6%,-11%
CCCNC(=O)C1(C)CCCN(Cc2cccc3ccccc23)C1 (stereo not drawn),-18%,-7%
CCOC(=O)[C@]12CCC=C1N(Cc1cccc3ccccc13)C(=O)[C@H](CC(=O)N1CCCCC1)C2,-2%,0%
Cc1cccc(C(O)c2ncc(-c3cccc(C(F)(F)F)c3)[nH]2)c1C (stereo not drawn),6%,12%
O=C(Nc1ccccc1OC(=O)c1ccccc1)c1ccccc1,-14%,0%
Cc1cn([C@H]2C[C@H](O)[C@@H](CNS(=O)(=O)c3ccc(NS(=O)(=O)N(C)C)cc3)O2)c(=O)[nH]c1=O,3%,-8%
CCOC(=O)CCCCCC(=O)Nc1ccc2c(c1)C(=O)N([C@@H](C)CO)C[C@H](C)[C@H](CN(C)C(=O)Nc1ccc(F)cc1)OCCCC[C@H](C)O2,-5%,-10%
COCCCN1C(=O)C(CC(=O)NC2CCCCC2)CC(C(=O)N2CCOCC2)=C1C (stereo not drawn),8%,-22%
CCC(C(=O)NC1CCCC1)n1c(C2CC2)nc2ccccc21 (stereo not drawn),-11%,-25%
COc1ccc(Cl)cc1NC(=O)CN1C(=O)C(=O)N(C2CCCC2)C1=O,6%,-17%
O=C(Cc1cccc(NC(=O)C2CCN(C(=O)c3ccccc3)CC2)c1)Nc1cccc(C(=O)N2CCCCC2)c1,6%,-8%
N#Cc1ccc(NC(=S)N2Cc3ccccc3-n3nncc3C2)cc1,-1%,11%
CC(C)(C)n1nnnc1C(CCc1ccccc1)N1CCC(n2c(=O)[nH]c3ccccc32)CC1 (stereo not drawn),3%,32µM*
CCCC(C(=O)NC(C)(C)C)N(Cc1ccccc1)C(=O)c1snc(C(N)=O)c1N (stereo not drawn),3%,?
CC(C)(C)c1ccc(Nc2n[nH]c3ccccc23)cc1,2%,-3%
COCCNC(=O)c1cc(-c2ccccc2)nn1CC1CC(c2cccc([N+](=O)[O-])c2)=NO1 (stereo not drawn),-2%,2%
CCOC(=O)C1(CCOC)CCCCC1=O (stereo not drawn),-11%,-21%
CCCCC1CC2=C(C(=O)OC(C)(C)O2)C(c2ccc(F)cc2)O1 (stereo not drawn),7%,-18%
COCCN1C[C@@H](CO)O[C@@H](n2cnc3c(NCc4ccncc4)ncnc32)C1,8%,-21%
COC1OC(c2ccccc2)=C(c2cnc(N)nc2)c2ccc(F)cc21 (stereo not drawn),5%,-19%
Cc1noc(C)c1S(=O)(=O)Nc1ccc2c(c1)C(=O)N([C@@H](C)CO)C[C@@H](C)[C@@H](CN(C)CC1CCCCC1)OCCCC[C@@H](C)O2,61%,-6%
Cc1ccc2c(c1)N(Cc1ccccc1)C(=O)C(C)S2 (stereo not drawn),12%,-27%
CC1(C(=O)NS(=O)(=O)c2ccccc2C(F)(F)F)CCN1C(=O)C1CCCCC1 (stereo not drawn),14%,-9%
Cc1ccccc1Oc1ccc2c(c1)[C@@H]1C[C@H](N(C)C(=O)c3cccnc3)[C@H]([C@H](C)O)C(=O)N1CC2,8%,-5%
CCOC(=O)C1=CCN(S(=O)(=O)c2ccccc2Br)C1c1ccc(C)cc1 (stereo not drawn),23%,-20%
C[C@H](CO)N1C[C@H](C)[C@H](CN(C)Cc2ccncc2)OCc2ccccc2-c2c(n(C)c3ccccc23)C1=O,-2%,?
COc1ccc(CC(=O)Nc2cc(S(=O)(=O)N3CCCCC3)ccc2OC(C)C)cc1OC,18%,0%
Cc1cc2nc(-c3ccc(C#N)cc3)c(Cc3ccsc3)n2c(C)c1Br,-20%,-8%
CC1(C)C=Cc2c(ccc3c2OC[C@@H](c2ccc(O)cc2O)C3)O1,-72%,9%
CC(=O)Nc1ccc(S(=O)(=O)N(C)c2ccc(OCC(=O)NCCc3ccccc3F)cc2)cc1,6%,?
CC1(C(=O)NS(=O)(=O)Cc2ccccc2)CCN1C(=O)Cc1cc(F)ccc1F (stereo not drawn),8%[18.4 µM],-11%
CN1OC[C@@H]2CN[C@H](c3ccc(Br)cc3)C[C@@H]21,-6%,1%
CCC(c1nc2ccccc2[nH]1)n1c(-c2cccnc2)nc2ccccc21 (stereo not drawn),-7%,-13%
O=C1CC2(CCCCC2)Oc2ccccc21,3%,-6%
CC1(C(=O)O)CCCN1C(=O)c1cccc2ccccc12 (stereo not drawn),1%[18.4 µM],-13%
O=C1N[C@@H](Cc2cn(S(=O)(=O)c3ccc([N+](=O)[O-])cc3)c3ccccc23)C(=O)N[C@H]1Cc1ccccc1,-8%,-23%
CC1(C(=O)NS(=O)(=O)c2cccc(Cl)c2)CCN1C(=O)C1(c2ccccc2)CC1 (stereo not drawn),-5%[18.4 µM],21%
Cc1ccsc1C(=CCCN1CCC[C@@H](C(=O)O)C1)c1sccc1C,2%[18.4 µM],-13%
COc1ccc(C(=O)C2CCCN(C(=O)c3csc(SC)n3)C2)cc1F (stereo not drawn),5%,-1%
O=[N+]([O-])C1C(c2ccccc2)C12c1ccccc1-c1ccccc12 (stereo not drawn),-22%,14µM*
CC1=C(C(=O)N(C(C)C)C(C)C)CC(CC(=O)NCc2ccco2)C(=O)N1Cc1ccc(F)cc1 (stereo not drawn),10%,-7%
CC(C)C[C@@H](CNCC(=O)[C@H](C)NC(=O)c1[nH]cnc1C(=O)N[C@@H](C)CN)NC(=O)c1nc[nH]c1C(=O)N[C@@H](CO)C(=O)O,-13%,-1%
Oc1ccccc1C=NNC(=S)NC1CC2C=CC1C2 (stereo not drawn),-27%,58%[activator]
Cc1cccc(C)c1NC(=O)C(c1ccc(C(F)(F)F)cc1)n1c(=O)c(-c2cc3ccccc3[nH]2)nc2ccccc21 (stereo not drawn),7%,0%

# Part of the list above, bar-delimited:
smiles | RE007 growth inh | 2A StopGo
Oc1ccccc1C=NNC(=S)NC1CC2C=CC1C2 (stereo not drawn) | -27% | 58%[activator]
Cc1cccc(C)c1NC(=O)C(c1ccc(C(F)(F)F)cc1)n1c(=O)c(-c2cc3ccccc3[nH]2)nc2ccccc21 (stereo not drawn) | 7% | 0%

# Other records follow:
SMILES,RE007 growth inh,2A StopGo
Fc1cccc(Cc2c(-c3cccc(Cl)c3)nc3ccc(Br)cn23)c1,-12%,18%
COC(=O)c1ccc2nc(-c3ccc(OC)c(OC)c3)c(Cc3ccsc3)n2c1,-10%,-11%
CCc1nc2ccc(C(=O)NCc3ccc4c(c3)OCO4)cn2c1N(C)CCC(C)C,9%,-15%
C[C@@H]1CN([C@@H](C)CO)C(=O)c2cc(Br)cnc2O[C@@H]1CN(C)C(=O)Nc1ccc(F)cc1,-12%,-5%
COCCCNC(=O)C[C@@H]1C[C@@]2(C(=O)OC)CCCCC=C2N(Cc2ccccc2)C1=O,13%,-11%
CN(C)CCOc1ccc2c(c1)C(=O)C(=Cc1ncc([N+](=O)[O-])n1C)C2,-17%,-5%
NNC(=O)C1SCCN1S(=O)(=O)c1ccc(Cl)cc1 (stereo not drawn),4%,3%
COc1ccc(S(=O)(=O)N2CCC[C@H]2C(=O)N2CCC[C@H]2C(=O)NCc2ccncc2)cc1C,-11%,-14%
CCN(CC)C(=O)c1ncn2c1C(=O)N(C)CC2,14%,-7%
CCCCCC(=O)N1C[C@H](O)[C@@H](n2cc(-c3ccc(F)cc3)nn2)C[C@@H]1c1ccc(OC)cc1,6%,?
NC(c1csc(NC(=O)c2cccc(OC(F)(F)F)c2)n1)c1ccccc1Cl (stereo not drawn),-9%,-26%
CCCCn1nnnc1C(c1ccccc1)N1CCN(C/C=C/c2ccccc2)CC1 (stereo not drawn),-14%,-14%
CCc1nc2c(OCCn3cccc3)cccn2c1N(C)C(=O)c1ccccc1F,-18%,10%
CCNc1nc(NC(C)C)nc(-c2ccncc2)n1,-18%,-15%
CN(C(=O)c1cccc(NC(=O)Cc2cccc(NC(=O)C3CCCN(C(=O)CCc4ccccc4)C3)c2)c1)C1CCC1 (stereo not drawn),-11%,?
CC1=C(C(=O)N2CCCCCC2)CC(CC(=O)NCC2CCCCC2)C(=O)N1Cc1ccc(F)cc1 (stereo not drawn),4%,-8%
COc1ccc([C@H]2N[C@]3(CCCN(Cc4ccc(C(F)(F)F)cc4)C3=O)[C@H]3C(=O)N(C)C(=O)[C@@H]23)cc1,22%,-4%
COc1ccc(-c2nn(-c3ccccc3)cc2C(=O)N2CCN(S(=O)(=O)c3ccccc3[N+](=O)[O-])CC2)cc1,-10%,3%
